Compound activity (PubChem BioAssay)
AID504770: growth inhibition of E. coli YBA685, primary screen, V. cholerae RctB inhibitors; E. coli YBA685 rctB-dependent plasmid, OD600 growth, 3 h; active compounds read low; z-score (concentration not given with the values); 0.27% of 130,000 active;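 active = z-score under -2 on both plates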;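 also: wells of about 30 µL received 100 nL stock; score is relative to mean and SD of the test wells; the first replicate is given; strong numbers were not always called active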
CapD inh: Bacillus anthracis CapD inhibitors, primary screen, biochemical, fluorescence intensity | 0.23% of 140,000 active | purified CapD enzyme, fluorescence intensity read-out; active compounds read low; some hits fall short of the stated cut | AID 492967, 2010 | z-score (test concentration not listed);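 active = z-score under -4 in either of two replicates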;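 also: stock transfer was 100 nL into about 40 µL; score is relative to mean and spread of the plate; one replicate is shown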
An asterisk follows results filed as active; x = not tested or not shown; & = joins results of further samples.

Second line of a record: AID504770 | CapD inh
COc1cccc(CN2CCc3nc(Nc4ccccc4)ncc3C2)c1
  1.7 | 0.97
O=C(NNS(=O)(=O)c1cc(C(F)(F)F)cc(C(F)(F)F)c1)c1cc(C(F)(F)F)ccc1Cl
  x | 0.195
CCn1c(-c2cccs2)c(CNC(=O)Nc2ccc3c(c2)OCCO3)c2ccccc21
  0.55 | 3
NC(=O)C1CCN(C(=O)c2ccc(Oc3cc(Cl)cc(Cl)c3)o2)CC1
  -0.25 | 0.46
CN(CCc1ccccn1)C(=O)OCCc1ccc(Cl)cc1
  x | -0.605
CCCNC(=O)c1ccc2c(c1)N(Cc1ccc(F)cc1)CCS2
  2.05 | -0.05
CC(OC(=O)C12CC3CC(CC(O)(C3)C1)C2)C(=O)N(C)c1ccccc1 (stereo not given)
  -0.8 | x
Cc1cc2c(cc1S(=O)(=O)NCc1ccccc1)n(C)c(=O)c(=O)n2C
  1.35 | 9.73
Cc1cc(Sc2ccccn2)c2ccccc2n1
  1.55 | 0.1
CN(C)C(=O)COc1ccc2c(-c3ccccc3)cc(=O)oc2c1
  0.15 | 0.375
O=S(=O)(c1cccc(C(F)(F)F)c1)N1CCN(S(=O)(=O)c2cccc(C(F)(F)F)c2)CC1
  -1 | 0.135
O=C(CCn1[nH]c(=O)ccc1=O)Nc1ccc(-c2cc3ccccc3o2)cc1
  0.4 | x
Cc1ccc2cc(CCNC(=O)C34CC5CC(CC(C5)C3)C4)c(=O)[nH]c2c1C
  -0.25 | -1.4
Cc1ccc(S(=O)(=O)N2CCCCC2)cc1C(=O)O
  0.2 | -0.315
CCOc1cc(C(=O)O)c(N)cc1OC
  -0.35 | x
Cc1oc(-c2ccccc2)nc1CCO
  -0.6 | 1
CCCc1cc(=O)[nH]c(SCC(=O)N2CC3(C)CC2CC(C)(C)C3)n1 (stereo not given)
  0.55 | x
CCOC(=O)c1c(/N=C/c2ccccc2O)sc2c1CCC2
  0.6 | -0.245
CCN(CC)S(=O)(=O)c1cccc(C(=O)Nc2ccccc2)c1
  1.9 | x
Cc1nc2c3ccccc3nc(SCc3ccc(C#N)cc3)n2n1
  0 | 0.15
Cc1[nH]n(-c2ccccc2)c(=O)c1C(c1cccc(O)c1)c1c(C)[nH]n(-c2ccccc2)c1=O
  x | -0.21
COC(=O)C(C(=O)OC)c1nc2ccccc2nc1Cl
  -2.25 | x
O=[N+]([O-])O[C@H]1CO[C@H]2[C@@H]1OC[C@H]2O[N+](=O)[O-]
  0 | 0.215&0.255
CC1CCc2nc(NNC(=O)CN3CCCC3)nc(C(F)(F)F)c2C1 (stereo not given)
  -0.25 | 0.195
Cc1csc(=O)n1CC(=O)NC(C)C12CC3CC(CC(C3)C1)C2 (stereo not given)
  0.15 | x
CCCN(Cc1cccs1)C(=O)Nc1ccc(OC)cc1
  0.85 | 0.1
CCC(C)(C)c1cc2cc(NC(=O)C(c3ccccc3)c3ccccc3)ccc2[nH]1
  x | -0.35
CC(C)NC(=O)CSCc1cnn(-c2ccccc2)c1-n1cccc1
  0.1 | 7.88
CC1(C)Cc2c(sc3ncn4nc(-c5ccccc5)nc4c23)C(C)(C)N1
  1.5 | -1.28
Cc1ccc(-c2ccc(=O)n(CC(=O)NCCN3CCCCC3C)n2)cc1 (stereo not given)
  -0.4 | -0.505
COc1ccc(C2c3cc(OC)c(OC)cc3CC(=O)N2NC(=O)c2ccco2)cc1 (stereo not given)
  -0.1 | 0.135
O=C(c1nc(SCc2ccc(Cl)cc2)n2ccccc12)C(F)(F)F
  x | 6.89
Cc1cc(C)c(C#N)c(Oc2cccc(N)c2)n1
  2.2 | -0.245
Cc1ccc(-c2nnc(SCc3cccc(S(=O)(=O)N4CCOCC4)c3)n2N)cc1
  0.05 | x
COc1ccc(C2SCC(C(=O)O)N2C(C)=O)cc1 (stereo not given)
  -1.3 | 0.385
Cc1ccc(CNS(=O)(=O)NCc2cccc(C(F)(F)F)c2)cc1
  x | -0.5
CCc1ccc(C(=O)OCC(=O)NC2CCCC2)cc1
  0.15 | x
CCOC(=O)N1CCN(C(=O)c2sc3ncnc(N4CCN(c5ccc(OC)cc5)CC4)c3c2C)CC1
  x | -0.33
O=C(Cc1ccccc1)c1nc2ccccc2s1
  -0.65 | x
Cn1c(O)c(C=Nc2ccc(Br)cc2)c2ccccc21
  0.05 | x

Sorted by number of heavy atoms (low to high): some entries from above
Second line of a record: AID504770 | CapD inh
Cc1cc(C)c(C#N)c(Oc2cccc(N)c2)n1
  2.2 | -0.245
CCc1ccc(C(=O)OCC(=O)NC2CCCC2)cc1
  0.15 | x
CCCN(Cc1cccs1)C(=O)Nc1ccc(OC)cc1
  0.85 | 0.1
O=C(c1nc(SCc2ccc(Cl)cc2)n2ccccc12)C(F)(F)F
  x | 6.89
Cc1ccc(-c2ccc(=O)n(CC(=O)NCCN3CCCCC3C)n2)cc1 (stereo not given)
  -0.4 | -0.505

Further compounds:
Second line of a record: AID504770 | CapD inh
O=C(Nc1ccc(NC(=O)C2CC2)cc1)C1CC1
  0.1 | 0.075
CCOC(=O)Cc1c(C)[nH]c(=O)[nH]c1=O
  0.1 | -0.64
N#CCC(=O)NNC(=S)Nc1ccc(Cl)c(Cl)c1
  x | -1.27
CCn1c(=O)c(-c2c(C)nn(-c3ccccc3)c2C)nc2cc(S(=O)(=O)N(C)C)ccc21
  -0.25 | x
CCOC(=O)c1c(N)n(CCNC(=O)c2cc(OC)c(OC)c(OC)c2)c2nc3ccccc3nc12
  -0.2 | x
CC1(C)c2sc(=O)[nH]c2SC2C(=O)N(CC(=O)N3CCOCC3)C(=O)C21 (stereo not given)
  -3 | x
CCC1=C(c2ccc(C)cc2)S(=O)(=O)N=C1N1CCC(C(=O)N2CCC(C)CC2)CC1
  0.9 | -1.11
COCCOC(=O)C1=C(C)NC2=C(C(=O)CC(c3ccc(OC)c(OC)c3)C2)C1c1cccc([N+](=O)[O-])c1 (stereo not given)
  x | -0.52
COc1ccc(OCC(=O)Nc2c[nH]c(=O)[nH]c2=O)cc1
  0.3 | 0.75
CCc1ccc(-c2nc(CSCC(=O)NCc3ccco3)c(C)o2)cc1
  0.2 | 0.425
COc1ccc(C(=O)N2c3ccc(C)cc3C(Nc3ccc(C)cc3)CC2C)cc1 (stereo not given)
  x | -0.675
Cc1cc(C)c(C(N)=O)c(CC(C)(C)C(=O)O)c1
  0 | 0.31
COc1cc(C2Nc3ccc4ccccc4c3C3=C2C(=O)CC(C)(C)C3)cc(OC)c1OC (stereo not given)
  x | 18.8
COC(=O)c1c(C(C)(C)C)oc2c1cc(NS(=O)(=O)c1ccc(C)cc1)c1ccccc12
  3.3 | 33.5
CC1N=C(N)C(c2nc3ccccc3n2C)=C1O (stereo not given)
  0.55 | x
O=C(COC(=O)COc1ccc(Br)cc1)NC1CCCC1
  0.15 | -0.49
O=C(O)Cc1cn(-c2ccc(Cl)nn2)c2ccccc12
  -1.7 | -0.17
Cc1cccc(N2CCN(C(=O)CCC(=O)O)CC2)c1C
  -0.05 | 0.655
CCN(CC)C(=O)c1ccc(NC(=O)Nc2ccccc2OC)cc1
  -1.9 | x
COC(=O)c1ccc(NC(=S)NC(=O)C2CC2)cc1
  -1.1 | -0.72
CCC(=O)NC(C)c1nc2ccccc2[nH]1 (stereo not given)
  -0.5 | 0.23
Cc1ccc(C)c(OCCC(=O)N2CCN(S(=O)(=O)c3cc(F)ccc3F)CC2)c1
  1.4 | x
COC(=O)C1Cc2ccccc2CN1 (stereo not given)
  0.1 | 1.13
CCc1ccc(NC(=O)COC(=O)CC2CCCC2)cc1
  -0.15 | 0.06
COc1ccc(CCn2nnnc2CN2CCN(Cc3ccccc3)CC2)cc1OC
  -2.2 | x
CC12CCC(=O)N1C(C(=O)OCn1nnc3ccccc3c1=O)CS2 (stereo not given)
  -0.6 | x
O=S(=O)(c1ccc(NC(=S)NCc2ccco2)cc1)N1CCCC1
  -0.45 | 0.15
N#Cc1c(N2CCCC2=O)sc2c1CCC2
  -0.9 | -0.275
O=C(O)c1cccc(Nc2ccnc3cc(Cl)ccc23)c1
  1.75 | -1.2
Cc1c(Cc2ccccc2)sc(/N=C/c2ccc(Cl)cc2)c1C(N)=O
  1.15 | -1.24
CCOc1ccc(/C=N/NC(=O)c2cccnc2)cc1CN1CC2CC(C1)c1cccc(=O)n1C2 (stereo not given)
  0.25 | -0.55
CCOC(=O)c1ccc2c(c1)nc(SC/C(O)=C(\C#N)c1nc3ccccc3[nH]1)n2CC
  -0.9 | x
CCCCNC(=O)C1CCN(Cc2ccccc2OCC)CC1
  -4.85 | x
Cc1ccc(C)n1-c1nn(S(=O)(=O)c2cccc3cccnc23)c2cccc(F)c12
  -0.2 | 0.86
Cc1onc(-c2ccccc2)c1C(=O)Nc1cccnc1
  -0.1 | -0.96
CC1CCN(c2nc3c(c(=O)n(C)c(=O)n3C)n2CC(=O)c2ccc(Br)cc2)CC1
  x | 0.015
Cc1ccc[n+](C(C)C(=O)c2ccccc2)c1 (stereo not given)
  -0.35 | 0.705
CC(=O)NCc1ccc(C(=O)COC(=O)CSc2ncnc3sccc23)o1
  0.1 | x
CCO/C=C(\C#N)S(=O)(=O)C(C)(C)C
  x | 0.39
Cc1ccccc1Cn1nc(-c2ccccc2)c(N2CCCCC2)cc1=O
  x | -0.6
O=C(Nc1ccc(N2CCOCC2)cc1)C1CCCN(C(=O)c2ccc(Cl)cc2)C1 (stereo not given)
  0.75 | x
CC(=O)c1cnn(-c2c(Cl)cc(Cl)cc2Cl)c1C
  x | -0.28
Nc1ccc(OCC(O)C[n+]2ccccc2)cc1 (stereo not given)
  -0.45 | -0.055
CCOC(=O)c1ccc(CN)cc1
  -0.45 | -0.215
CCn1c(O)c(/C=N/NS(=O)(=O)c2ccc(C)cc2)c(=O)n(CC)c1=S
  0.65 | x
C=CCOc1ccc(CN2CCN(C(=O)OCCN(Cc3cc4ccccc4c4ccccc34)C(=O)OC(C)(C)C)CC2)cc1
  x | -0.03
CCOC(=O)C1CCN(c2cc(C(F)(F)F)nc3c(F)cccc23)CC1
  x | 0.525
O=C(O)Cc1ccccc1C(=O)N1CCN(C(c2ccc(F)cc2)c2ccc(F)cc2)CC1
  x | 0.96
O=C(CSc1nnc(-c2ccccc2)n1-c1ccccc1)N1CCCC1
  -0.95 | 0.14
CN(CCCNC(=O)c1cc2ccccc2n1C)c1ccccc1
  x | -0.375
COc1ccc2cc(C(C)C(=O)Nc3ccc(N4CCN(C)CC4)cc3)ccc2c1 (stereo not given)
  0.3 | x
c1ccc(OCc2cn3cccnc3n2)cc1
  0 | 50.1
CS(=O)(=O)OC12CC3CC(CC(C3)C1)C2
  x | 0.055
CCn1c(-c2ccc(F)cc2)csc1=Nc1cc(OC)c(Cl)cc1OC
  0.4 | 0.345
CN(CCc1ccccn1)C(=O)c1cc2c(=O)oc3ccccc3c2s1
  -0.1 | 0.96
Cc1ccc(C)n1-c1sccc1C#N
  -0.85 | -0.1
CCOc1ccc(-c2c(C#N)c(N)nc(SCC(=O)c3ccc(OC)cc3)c2C#N)cc1
  x | 1.34
CCc1nc2ccccc2nc1CC
  2.25 | -0.145
Cc1cc(Br)ccc1NC(=O)CC1CCCCC1
  0.05 | -0.175
COc1cccc(-n2c(N)cc(=O)nc2SCC(=O)N2CCN(c3ccccc3)CC2)c1
  -0.1 | x

Single records (already shown). Order of screens: AID504770 | CapD inh
`O=C(Nc1ccc(N2CCOCC2)cc1)C1CCCN(C(=O)c2ccc(Cl)cc2)C1` (stereo not given) in the list: 0.75 | x
`CCOC(=O)C1CCN(c2cc(C(F)(F)F)nc3c(F)cccc23)CC1` in the list: x | 0.525

Continuation.
Second line of a record: AID504770 | CapD inh
CCN(CC)C(=O)CN1C(=O)S/C(=C\c2ccccc2)C1=O
  0.05 | -0.02
NC(=O)C1Cc2ccccc2CN1C(=O)CSc1nnc(-c2ccco2)n1Cc1ccccc1 (stereo not given)
  -0.15 | x
O=C(NCCN1CCOCC1)OCCc1ccc(Br)cc1
  x | 0.16
CN(C)S(=O)(=O)c1ccc(NC(=O)c2ccc(=O)n(C)n2)cc1
  0 | x
c1ccc(-c2ccc(N3CCOCC3)s2)cc1
  1.05 | x
NS(=O)(=O)c1ccc(NC(=O)c2cnc3ccccn3c2=O)cc1
  -1.1 | 3.89
O=C1OC(c2ccccc2)c2ccccc21 (stereo not given)
  x | -0.265
CC(=O)Oc1ccc2c(=O)c(Oc3ccccc3)c(C)oc2c1
  -1.15 | 2.83
CCc1[nH]c(=S)[nH]c(=O)c1C#N
  -0.2 | -6.48*
COc1cccn(Cc2nnc(SCc3ccc(Cl)cc3)n2C)c1=O
  -0.35 | 0.35
COC(=O)c1ccc(Cl)cc1NC(=O)c1ccccc1Cl
  x | -0.215
Cc1ccc(C)n1C1CCCCC1
  0.65 | 1.39
S=C(Nc1ccc(Cl)cc1Cl)N1CCCC1c1cccs1 (stereo not given)
  1.2 | 0.315
Oc1ccc2ccccc2c1C(c1ccc(Br)cc1)N1CCCCC1 (stereo not given)
  x | 0.195
O=C(Nc1ccccc1C(F)(F)F)c1cnccn1
  -0.45 | -0.035
COc1ccc(/C=C(\C#N)C(N)=S)cc1
  1.55 | -2.67
Cc1cc(C(F)(F)F)c(C#N)c(SC2CC(=O)N(c3ccccc3)C2=O)n1 (stereo not given)
  x | -0.025
O=C(O)c1ccc(-c2ccccn2)s1
  x | 17.1
CC(C)C(=O)NC(=S)Nc1ccc(Cl)cc1
  -0.1 | 0.1
Oc1cc2c(cc1C(Nc1ccccn1)c1ccc3c(c1)OCO3)OCO2 (stereo not given)
  -1 | -0.395
CC1=C(C(=O)OC(C)C)C(c2ccc(C(C)C)cc2)C(C#N)=C(N)S1 (stereo not given)
  0.55 | 5.83
S=c1[nH]cnc2sc3c(c12)CCCC3
  0.75 | x
CC(C)N(C(=O)Cn1c(-c2cccnc2)ccc(C#N)c1=O)C(C)C
  -2.5 | x
